Source: PubChem BioAssay (National Center for Advancing Translational Sciences (NCATS))
gsp ag: agonists of gsp mutant (McCune-Albright syndrome). gsp mutant cells, cAMP HTRF, 30 min; control for the full effect not named in the record. Potency, µM (series often up to 76.9 µM), inactives show top-dose activation (cAMP increase), usual class: activators. 340,000 compounds, 0.13% hits; active = well fitted activation curve with a large enough effect; inconclusive = small, poorly fitted or top-dose-only effect, or another doubt; inactive = no such curve, though single readings can be large or run the other way; cell line not stated here;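 also: phosphodiesterase inhibitor Ro 20-1724 added with compounds to block cAMP breakdown; potency is read from the fitted curve at half-maximal effect; nearly all actives have a fitted effect of over 60% in size; about a fifth of the inactives were tested at one dose only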
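Cells in DMEM/10% FBS with G418 were pretreated with compounds in DMSO plus […] (300 uM stock) for 30 min at 37C. cAMP was measured by HTRF (cAMP-d2 plus anti-cAMP antibody-K) after 30 min at room temperature.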
Sfp PPTase inh: blocks B. subtilis Sfp PPTase activity | Q9F4F7 | Biochemical Sfp PPTase activity, qHTS | Potency, µM, for the others: max response, negative = inhibition, hits mostly inhibitors | 310,000 compounds, 3.5% hits | AID 1490; active = well fitted inhibition curve with a large enough effect; inconclusive = small, poorly fitted or top-dose-only effect, or another doubt; inactive = no such curve, though single readings can be large or run the other way;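 also: the enzyme is Sfp with the accession as filed and its product quenches rhodamine fluorescence; potency is read from the fitted curve at half-maximal effect; 0% = enzyme reaction without inhibitor and -100% = no enzyme wells; top concentration of the series not given in the record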
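Compounds were incubated with enzyme (final 15 nM) for 15 min at room temperature before substrate addition started the reaction. Fluorescence at 525 nm excitation, 598 nm emission was recorded immediately and after 30 minutes.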
TRPV1 potentiator: enhances activation of the human vanilloid receptor TRPV1; potentiation, % at 8.33 µM; Q8NER1; 320,000 compounds, 0.02% hits; TRPV1-expressing cells, Fluo-8 calcium influx, capsaicin EC20 potentiation; host cell line not named in the record; control for the full effect not named in the record; active means potentiation above 80%; inconclusive means 30% to 80%; inactive means below 30%; also: 0% is about no effect
Target sequence (Q8NER1 whole entry, looked up): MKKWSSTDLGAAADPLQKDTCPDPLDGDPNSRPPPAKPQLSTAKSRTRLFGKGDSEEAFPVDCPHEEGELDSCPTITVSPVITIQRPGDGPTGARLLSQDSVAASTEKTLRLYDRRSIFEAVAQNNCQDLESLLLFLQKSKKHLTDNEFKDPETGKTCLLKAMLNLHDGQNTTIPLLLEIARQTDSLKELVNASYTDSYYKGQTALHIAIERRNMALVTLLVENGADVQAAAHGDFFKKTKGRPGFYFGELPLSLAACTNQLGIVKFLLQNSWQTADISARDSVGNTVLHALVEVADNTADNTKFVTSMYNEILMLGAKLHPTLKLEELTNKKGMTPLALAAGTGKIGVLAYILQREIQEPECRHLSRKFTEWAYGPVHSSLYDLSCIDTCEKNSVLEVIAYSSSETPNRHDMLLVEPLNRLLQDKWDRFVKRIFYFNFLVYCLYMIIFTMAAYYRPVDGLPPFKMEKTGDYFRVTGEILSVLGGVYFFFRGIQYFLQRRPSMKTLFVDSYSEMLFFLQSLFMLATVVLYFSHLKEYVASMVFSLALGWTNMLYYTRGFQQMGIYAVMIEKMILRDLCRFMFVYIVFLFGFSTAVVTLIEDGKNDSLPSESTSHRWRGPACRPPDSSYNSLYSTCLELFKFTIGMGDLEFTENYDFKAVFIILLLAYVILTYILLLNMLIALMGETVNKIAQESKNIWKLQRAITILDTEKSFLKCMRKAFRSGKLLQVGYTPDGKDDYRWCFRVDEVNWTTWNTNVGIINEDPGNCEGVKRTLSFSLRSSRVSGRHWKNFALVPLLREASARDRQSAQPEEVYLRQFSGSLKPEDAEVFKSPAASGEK
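Fluo-8 calcium influx in TRPV1-expressing cells, kinetic read (ex 480/em 520 nm). Compound added and read 3 min for agonist activity, followed by capsaicin at EC20 final and 2 min further read for enhancement.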
Menin MLL FP FL: displaces fluorescein MLL peptide from human menin | Fluorescence polarization, fluorescein-MLL peptide displacement from menin | 290,000 tested, under 10 active | FP activity change, % at 61.4 µM; inconclusive = falling polarisation curve, or a change in total fluorescence; inactive = total fluorescence flat and polarisation flat or rising; no compound was filed as active; the % refers to the polarisation; negative = inhibition;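 also: % of control where 0% means no effect; inhibitors lower the polarisation; unlabelled MLL peptide was the positive control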
CtBP-E1A blk: CtBP/E1A binding inhibition; AlphaScreen GST-E1A/His-CtBP binding, 1536-well; stronger effect = lower value; control for the full effect not named in the record; activity change, % (test concentration not listed); 340,000 compounds, 0.49% hits; AID 651724; in the data active means activity change below about -65%; inconclusive means about -30% to -65%; inactive means above about -30%; also: % is scaled to controls: 0 for no effect and ±100 for the full control effect
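In 5 uL wells, 23 nL compound meets equimolar GST-E1A and His-CtBP (5X stock 125 nM each) for 2 h, 37 °C. Beads (5X, 50 ug/mL) then 1 h, 37 °C, dark.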
ClpP mod: qHTS Assay for Activators of ClpP; Potency, µM (top dose mostly 57.5 µM), without a hit: at the top dose activity change, negative = active; ATP-dependent Clp protease proteolytic subunit (Bacillus subtilis (strain 168)), P80244; 340,000 compounds, 1.9% hits; purified B. subtilis ClpP, FRET peptide cleavage, 20 min; active = well fitted falling curve with a large enough effect; inconclusive = small, poorly fitted or top-dose-only effect; inactive = no such curve, though single readings can be large or run the other way; also: potency is read from the fitted curve at half-maximal effect; the source files actives as falling curves though it sought activators and does not explain the sign; nearly all actives have a fitted effect of over 65% in size; many hits overshoot -100%
Target sequence (P80244 whole entry, looked up): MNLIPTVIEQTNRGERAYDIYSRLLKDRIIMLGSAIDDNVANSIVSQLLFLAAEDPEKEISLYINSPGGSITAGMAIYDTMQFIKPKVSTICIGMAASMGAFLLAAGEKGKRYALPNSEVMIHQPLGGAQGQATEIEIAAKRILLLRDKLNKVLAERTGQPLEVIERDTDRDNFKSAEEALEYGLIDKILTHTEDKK
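ClpP 10 microg/mL final, pH 8 Tris/KCl buffer with BSA, glycerol, Tween-20; compound pinned in; FRET-FV substrate; RT 20 min; Ex320/Em430; ΔFRET vs ADEP 5.8 microM, DMSO, no enzyme.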
gsp antagonist: gsp mutant antagonism; gsp-mutant cells, cAMP HTRF, 30 min; control for the full effect not named in the record; Potency, µM (series often up to 76.9 µM), without a hit: at the highest dose activity change, negative = inhibition, actives largely listed as inhibitors; 340,000 compounds, 0.4% hits; active = falling curve of any shape with a large fitted effect; inconclusive = falling curve, mostly with a smaller effect; inactive = flat or rising curve; cell line not stated here;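 also: intracellular cAMP measured with PDE inhibitor Ro 20-1724 present during compound exposure; potency is read from the fitted curve at half-maximal effect; % is scaled to controls: 0 for no effect and ±100 for the full control effect; nearly all actives have a fitted effect of over 65% in size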
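HTRF cAMP measurement after 30 min RT detection following 30 min, 37C compound treatment alongside […] (added as 300 uM solution) in G418-selected cells seeded at 2000/well and grown 16–24 h.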
Numbers without * were called inactive; ? = inconclusive; nt = no result given; [ ] = remark or other dose.

Every second line gives: gsp ag	Sfp PPTase inh	TRPV1 potentiator	Menin MLL FP FL	CtBP-E1A blk	ClpP mod	gsp antagonist
#1 OC(CN1CCC(Cc2ccccc2)CC1)C(F)(F)F (stereo not given)
 : 6.9%	7.5%	-4.5	-2.5	nt	2.6%	5.9%
#2 Cc1ccc(N2C(=O)C3C4C=CC(CC4)C3C2=O)cc1Cl (stereo not given)
 : -31.4%[inhibitor]	12.3%	-12.6	2.8	nt	0.4%	0.9%
#3 COc1ccc(N2C(=O)CSC2c2ccncc2)cc1 (stereo not given)
 : ?	20.7%	-3.6	3.2	7.5	-2.6%	13.1%
#4 C[C@H]1CN([C@@H](C)CO)C(=O)CCCn2nncc2CO[C@@H]1CN(C)Cc1ccc(-c2ccccc2)cc1
 : -12.9%	nt	nt	nt	2.2	0.2%	nt
#5 CCOC(=O)C1C(C(=O)NN)C1C(=O)Nc1ccccc1 (stereo not given)
 : 6.6%[15.4 µM]	-1.7%	-32.4	4.0	-13.4	nt	nt
#6 Cc1ccc(Nc2nc(-c3ccc(S(=O)(=O)N4CCOCC4)cc3)cs2)cc1
 : -0.6%	nt	nt	nt	3.3	12.6µM*	6.0%
#7 Cc1ccc(S(=O)(=O)Cc2ccc(C(=O)N3CCC(C(N)=O)CC3)o2)cc1
 : 19.9%	-1.1%	-33.9	nt	-11.3	-1.9%	14.9%
#8 CCOC(=O)C(NC(=O)CC)(Nc1ccccc1)C(F)(F)F (stereo not given)
 : -12.2%	21.9%	10.3	2.3	-5.7	1.2%	5.5%
#9 CCc1nnc(NC(=O)CSc2nnc(-c3ccc(S(=O)(=O)N(CC)CC)cc3)n2CC)s1
 : -26.4%	-5.3%	0.3	-1.0	3.0	-1.9%	?
#10 O=C(CN1CCN(C(=O)c2ccc(-c3nc4ccccc4s3)o2)CC1)Nc1ccccc1Cl
 : -3.8%[15.4 µM]	nt	-2.8	nt	-7.7	nt	17.8µM*
#11 CCOc1ccc(N(CC(=O)N2CCN(c3ccccc3OC)CC2)S(=O)(=O)c2ccc(F)cc2)cc1
 : -8.0%[15.4 µM]	-2.8%	5.1	nt	-3.8	1.0%	-10.5%
#12 CC(C)OC(=O)Cn1cc(C#N)c2ccccc21
 : 13.9%[15.4 µM]	9.6%	-2.6	4.3	-2.9	-6.5%	-8.9%
#13 CCCCOCCCNC(=O)CN1C(=O)c2ccccc2C1=O
 : 2.7%	-4.8%	0.5	2.6	7.6	-2.7%	0.0%
#14 COCCCNC(=O)Cn1c(=O)n(CCCCCC(=O)NCc2ccc3c(c2)OCO3)c(=O)c2sccc21
 : -3.8%[15.4 µM]	2.7%	13.0	-3.2	-1.7	nt	10.5%
#15 CN(CC(=O)O)c1ccc(S(=O)(=O)N2CCOCC2)cc1[N+](=O)[O-]
 : -5.0%[15.4 µM]	14.3%	-0.7	0.5	-22.9	nt	-14.8%
#16 COc1ccc(S(=O)(=O)N/N=C(/C)c2ccncc2)c(OC)c1
 : 9.6%	4.6%	4.9	nt	1.4	0.4%	3.2%
#17 O=C(NCc1ccccc1CN1CCCC1)c1cccc(N2CCCC2=O)c1
 : -18.4%	nt	7.4	nt	2.7	-2.5%	3.0%
#18 FC(F)(F)c1nc2ccccc2nc1N/N=C/c1c(Cl)cccc1Cl
 : ?	12.3%	11.0	2.0	-9.1	-0.6%	15.9%
#19 O=c1cc(N2CCN(Cc3ccccc3)CC2)[nH]c(=O)n1Cc1ccc(F)cc1
 : -17.4%	8.0%	-8.1	4.4	4.9	-2.8%	-12.6%
#20 O=C(Cn1cc(C(=O)C(=O)N2CCOCC2)c2ccccc21)Nc1cccc(C(F)(F)F)c1
 : -158.2%[inhibitor]	nt	nt	nt	-2.2	-0.4%	nt
#21 CN(C)C(/C=C/Nc1ccc(F)cc1)=C(C#N)C#N
 : -62.3%[inhibitor]	19.1%	nt	2.3	7.1	-9.6%	2.8%
#22 O=C(CC(=O)N/N=C/c1ccc(O)cc1)N/N=C/c1ccc(O)cc1
 : -16.8%	13.4%	-22.7	-0.1	-11.5	-16.2%	-10.4%
#23 Cc1ccc(C(=O)Nc2nc(=O)n(C(=O)CC(C)C)s2)cc1
 : -13.4%	16.1%	-15.2	2.4	8.0	5.4%	-34.6%
#24 Clc1ccc(SCc2csc(N3CCOCC3)n2)cc1
 : -1.3%[15.4 µM]	-15.0%	-6.8	0.3	1.1	0.9%	-16.3%
#25 COc1ccc(/C=N/Nc2cc(C)nc(N)n2)cc1
 : -9.9%	3.2%	7.2	-7.9	-1.9	-3.4%	2.4%
#26 CCOC(=O)CSc1nnc(-c2ccc(NS(=O)(=O)c3ccc(C)cc3)cc2)o1
 : -8.1%	-10.1%	9.3	1.3	-7.4	-6.4%	?
#27 COc1cccc(CN2CCN(S(=O)(=O)c3ccc(Br)cc3)CC2)c1
 : -3.0%	2.6%	-4.2	-0.6	9.2	-2.2%	2.0%
#28 COc1ccc(-c2cc(C(F)(F)F)nc(N3CCCCC3)n2)cc1OC
 : -37.3%[inhibitor]	12.1%	-18.2	0.1	11.5	35.5µM*	4.5%
#29 O=C(CSc1n[nH]c(-c2ccncc2)n1)NC1CCS(=O)(=O)C1 (stereo not given)
 : 5.4%	?	?	-4.0	3.4	-6.2%	7.9%
#30 COc1cc2ccccc2cc1C(=O)Nc1ccc(Cc2ccncc2)cc1
 : -3.9%	?	11.4	4.0	-9.6	-12.1%	35.5µM*
#31 Cc1ccc(O)c(NC(=S)NC(=O)c2ccccc2Cl)c1
 : -9.3%	0.6%	6.2	18.4	-28.0	nt	-5.8%
#32 COc1ccccc1OC(=O)c1cc(Cl)nc2ccccc12
 : -11.7%	-8.6%	14.7	4.1	-8.0	0.6%	14.8%
#33 Cc1cc(OC(=O)c2ccc(S(=O)(=O)N3CCOCC3)cc2)c([N+](=O)[O-])c(=O)[nH]1
 : ?	16.7%	8.2	1.4	4.4	nt	7.2%
#34 N=C1CCCC1C(=S)SCCC(N)=O (stereo not given)
 : ?	nt	nt	nt	5.1	2.5%	nt
#35 O=C(NCCc1ccco1)C(=O)NCC1CCCN1S(=O)(=O)c1ccccc1 (stereo not given)
 : -7.8%[15.4 µM]	nt	7.7	nt	-17.2	nt	4.3%
#36 Cc1ccc(/C=C2\SC(=S)N(CCC(=O)Nc3ccc(O)cc3)C2=O)cc1
 : -24.0%	15.8%	?	9.4	nt	2.4%	4.7%
#37 CC(C)[C@H](NC(=O)N1CCn2c1nc1ccccc12)C(=O)NCc1ccco1
 : -18.0%	20.8%	20.7	-0.6	0.7	-1.0%	15.8%
#38 CC1CN(C(=O)C2CCCCC2)C(C)CN1C(=O)C1CCCCC1 (stereo not given)
 : -32.9%	4.3%	-3.7	5.7	2.0	1.1%	12.4%
#39 CSc1ncccc1C(=O)N(C)CC(=O)Nc1ccc(Cl)cc1
 : -19.6%	0.9%	-10.8	3.5	19.5	0.4%	-23.1%
#40 CCN(CC(=O)Nc1ccc(NC(C)=O)cc1)C(=O)CN1C(=O)NC2(CCCC2)C1=O
 : 2.3%	nt	-11.6	nt	4.3	-0.5%	14.8%
#41 CC(OC(=O)c1cc2ccccc2cc1O)C(=O)Nc1ccc(S(N)(=O)=O)cc1 (stereo not given)
 : 0.5%	-7.7%	-10.6	5.0	nt	-6.9%	5.6%
#42 CCOC(=O)C1CCN(C(=O)COC(=O)/C=C/c2cccc(OC)c2OC)CC1
 : -34.3%[inhibitor]	nt	nt	nt	nt	-5.8%	-9.9%
#43 N#Cc1ccc(-c2cccs2)nc1SCc1cccnc1
 : ?	-7.7%	-1.5	8.2	-2.2	nt	4.4%
#44 O=C(CCn1c2c(c3ccccc31)CCCC2)NNC(=O)c1ccccc1[N+](=O)[O-]
 : -83.2%[inhibitor]	-14.1%	9.7	-9.4	-12.4	1.1%	5.2%
#45 CC(C)(C)c1ccc(NC(=O)NC2CCCc3ccccc32)cc1 (stereo not given)
 : 27.3%	12.2%	-7.2	-0.1	nt	-0.2%	7.6%
#46 CCc1cccc(CC)c1NC(=O)c1cccc(N)c1
 : -0.7%	16.8%	-4.8	3.5	-2.3	?	-1.5%
#47 COc1cc(C(=O)O/N=C2\C=CC(=O)C=C2C)cc(OC)c1OC
 : ?	7.4%	-0.2	6.3	-9.0	2.6%	-0.2%
#48 CC1SCC(=O)N(CC(=O)Nc2ccc3c(c2)OCCO3)C1=O (stereo not given)
 : 3.4%[15.4 µM]	12.6%	-5.3	5.2	7.5	-0.8%	2.7%
#49 COCCCNc1nc(-c2ccncc2)nc2ccccc12
 : 3.9%	7.7%	-0.6	4.5	-13.1	-9.6%	-3.0%
#50 CN(CCO)c1c2c(nc3cc(-c4cccc(F)c4)nn13)CCCC2
 : ?	?	8.0	-1.3	-5.2	-11.0%	-19.2%

Going on with the list:
Every second line gives: gsp ag	Sfp PPTase inh	TRPV1 potentiator	Menin MLL FP FL	CtBP-E1A blk	ClpP mod	gsp antagonist
#51 CCn1c(=O)c(C(=O)CN2CCN(Cc3ccc4c(c3)OCO4)CC2)c(N)n(Cc2ccccc2)c1=O
 : -44.4%	21.9%	-3.8	3.6	0.6	nt	-1.6%
#52 O=c1c2cc(F)ccc2sn1-c1ccccc1
 : nt	nt	15.9	nt	-1.7	-0.4%	-16.6%
#53 COC(=O)CCSCc1cn2cc(Cl)ccc2n1
 : ?	13.0%	-11.1	1.2	-3.1	7.2%	4.8%
#54 CN(CC(=O)Nc1cccc(F)c1)C(=O)c1cc(-c2ccco2)nc2ccccc12
 : ?	nt	3.0	nt	-12.6	-2.7%	-13.5%
#55 Clc1cccc(/C=N\Nc2nccs2)c1
 : -7.9%	-3.6%	?	1.9	-10.0	0.5%	-3.2%
#56 O=C(C1COc2ccccc2O1)N1CCN(c2ccccc2)CC1 (stereo not given)
 : -19.3%	8.2%	-22.4	-0.3	-2.3	-2.5%	-5.1%
#57 COc1ccc(C(=O)Nc2cccc(-c3nc4ncccc4o3)c2C)cc1OC
 : ?	14.2%	12.4	2.2	-0.4	9.6%	0.7%[15.4 µM]
